Bioassay records as filed in PubChem BioAssay.
Rango-impB inh: qHTS Assay for Inhibitors of Rango (Ran-regulated importin-beta cargo) - Importin beta complex formation. actives 0.031% (n = 340,000). Importin subunit beta-1 (Homo sapiens), Q14974. AID 540263, 2011. Rango CFP/YFP FRET sensor + importin beta, 45 min. Potency, µM (series often up to 92.2 µM), without a hit: top-dose inhibition of complex formation; active = rising FRET ratio curve, often small or poorly fitted; inconclusive = mostly compound fluorescence or quenching in the first reads; inactive = flat curves in all reads;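 also: potency is read from the fitted curve at half-maximal effect; 0% = DMSO wells and 100% = buffer wells lacking importin beta; nearly all actives have a fitted effect of over 15% in size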
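FRET biosensor Rango (snurportin 1 IBB between N-terminal EYFP and C-terminal Cerulean), 50 nM in PBS/1 mM DTT/0.02% Tween-20/0.1% BSA, preincubated 5 min RT with compound; 0.125 microM importin beta added, 45 min RT, CFP/YFP FRET ratio read.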
GLA inh pH 4.5: qHTS Assay for Inhibitors of Human alpha-Galactosidase at pH 4.5. Alpha-galactosidase A (Homo sapiens), P06280. purified enzyme, 4-MU-alpha-Gal fluorescence, pH 4.5. activity change, negative = inhibition, % at 105 µM. 230,000 tested, under 10 active. AID 1467, 2008; inconclusive = small, poorly fitted or top-dose-only inhibition, or a rising curve; inactive = flat fitted curve, though single readings scatter; no compound was filed as active;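 also: 0% = full activity with enzyme and -100% = basal without enzyme; dose as in the result columns while the protocol names 77 µM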
Target sequence (P06280 whole entry, looked up): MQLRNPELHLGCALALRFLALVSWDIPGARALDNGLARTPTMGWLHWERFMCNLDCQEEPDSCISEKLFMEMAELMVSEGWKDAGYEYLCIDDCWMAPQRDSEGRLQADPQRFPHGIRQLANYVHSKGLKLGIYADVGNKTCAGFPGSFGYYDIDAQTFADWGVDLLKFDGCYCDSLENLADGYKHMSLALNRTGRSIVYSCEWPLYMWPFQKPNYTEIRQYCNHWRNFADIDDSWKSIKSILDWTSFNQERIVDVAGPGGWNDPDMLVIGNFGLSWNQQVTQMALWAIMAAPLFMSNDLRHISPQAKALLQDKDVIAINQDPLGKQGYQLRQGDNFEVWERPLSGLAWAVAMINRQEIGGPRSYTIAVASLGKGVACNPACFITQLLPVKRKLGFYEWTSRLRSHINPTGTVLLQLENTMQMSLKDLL
miR-21 FLuc: qHTS Assay for Modulators of miRNAs and/orActivators of miR-21; AID 2288, 2010; Potency, µM (top dose mostly 38.3 µM), inactives show top-dose reporter change, positive = more light; HeLa miR-21 FLuc reporter, luciferase, 48 h; 340,000 tested, under 10 active; active = well fitted rising curve with a large enough effect; inconclusive = small, poorly fitted or top-dose-only effect; inactive = no such curve, though single readings can be large or run the other way;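 also: % of control where 0% means no effect; miR-21 action dims this reporter so a rising signal means less miR-21 action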
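Luminescence from a firefly luciferase reporter carrying a miR-21 binding site downstream, stably expressed under a CMV promoter in HeLa cells that make miR-21 endogenously, reports miRNA modulation after 48 h compound exposure up to approximately 40uM final.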
Rango release inh: qHTS Assay for Inhibitors of RanGTP induced Rango (Ran-regulated importin-beta cargo) - Importin beta complex dissociation. Snurportin-1 (Homo sapiens) + GTP-binding nuclear protein Ran (Homo sapiens) + Importin …. Biochemical FRET Rango-importin beta, RanGTP-induced dissociation. Potency, µM (highest dose often 46.1 µM), without a hit: at the top dose activity change, negative = inhibition. actives 0.071% (n = 340,000). AID 540253, 2011; active means falling FRET ratio curve, often poorly fitted, with flat reads before Ran was added; inconclusive means other falling curves, or compound fluorescence or quenching; inactive means flat or rising ratio curve;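 also: potency is read from the fitted curve at half-maximal effect; % of control where 0% means no effect; nearly all actives have a fitted effect of over 45% in size; -100% = wells without RanGTP and RCC1; the record marks most hits as doubtful in a second field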
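Recombinant Rango FRET biosensor (EYFP–snurportin 1 IBB–cerulean CFP10) at 0.1 uM premixed with 0.25 uM importin beta in PBS, 1 mM DTT, 0.02% Tween-20, 0.1% BSA. Compound added 5 min; RanGTP-RCC1 (0.6 uM Ran, 2 mM GTP, 0.2 uM RCC1) then triggers release, read at 45 min.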
An asterisk follows results filed as active; u = inconclusive; x = no result given.

Each structure is followed by: Rango-impB inh	GLA inh pH 4.5	miR-21 FLuc	Rango release inh
> CC(C)NC(=O)N(C)C[C@H]1Oc2ccc(NC(=O)C3CC3)cc2C(=O)N([C@H](C)CO)C[C@@H]1C
  -0.7%	x	x	-19%
> Cc1ccc(NS(C)(=O)=O)c(C(=O)c2ccccc2)c1
  5.5%	-1	-11%	-1%
> Cc1ccc(NC(=O)C2CC(=O)Nc3nncn32)cc1 (stereo not given)
  u	-8	2%	u
> CCCn1nnnc1NC(=O)c1cc(Br)ccc1OC
  -1.0%	2	-4%	-1%
> CCCC(C(=O)NC(C)(C)CC)N(CC1CCCO1)C(=O)CNS(=O)(=O)c1ccc(F)cc1 (stereo not given)
  -0.7%	x	0%	-10%
> Cc1cc(N/N=C/c2ccc(Cl)cc2Cl)nc(NCc2ccccc2)n1
  3.2%	-3	0%	-18%
> COc1ccc(C(=O)COC(=O)C2CC3CCCC(C2)C3=O)cc1Br (stereo not given)
  -3.3%	x	x	-4%
> CCCCC(=O)NC(NC(=S)N1CCOCC1)C(Cl)(Cl)Cl (stereo not given)
  -3.9%	-7	-6%	4%
> CCn1nnnc1SCC(=O)N1c2ccccc2Sc2ccccc21
  3.6%	-2	-5%	-7%
> CCN1CCN(C(=S)Nc2ccc(C(C)=O)cc2)CC1
  -1.2%	-7	-2%	-15%
> COCCn1c(=O)[nH]c2cc(C(=O)Nc3nnc(C)s3)ccc21
  3.7%	x	-11%	-12%
> COC(=O)CSc1nnc([C@H](Cc2ccccc2)NC(=O)OC(C)(C)C)o1
  -6.5%	0	-4%	-10%
> O=S(=O)(/N=C/c1ccccc1O)c1cccs1
  -1.8%	11	-2%	-5%
> CCc1ccc(NC(=O)Nc2ccncc2)cc1
  -2.3%	1	-24%	-7%
> COc1ccc(NC(=O)C2CCCN(c3c4c(nc5ncnn35)CCC4)C2)cc1OC (stereo not given)
  3.2%	-3	-11%	17%
> COc1ccc(S(=O)(=O)NCc2ccco2)cc1-c1nnc2c3ccccc3c(C)nn12
  -1.0%	-2	-21%	-14%
> COc1cc(OC)c(NC2=CC(=O)C(=O)c3ccccc32)cc1Cl
  u	x	5%	7%
> CC1(C)CC(=O)C2=C(C1)N1C(=C(C#N)C2c2ccc(Cl)cc2)N=C(N)c2ccccc21 (stereo not given)
  u	2	21%	-14%
> COc1ccc(OC)c2c1sc(=NC(=O)C1CCCCC1)n2C
  0.3%	7	4%	-8%
> CC(C)(C)c1ccc(-c2noc(CCC(=O)NCC3CCCO3)n2)cc1 (stereo not given)
  -2.0%	-1	u	-7%
> O=C(Nc1ccc(-c2nc3ccccc3[nH]2)cc1)c1ccccc1NS(=O)(=O)c1ccc(F)cc1
  -0.6%	13	-15%	10%
> Nc1c(C(=O)Nc2ccccc2)sc2ncc([N+](=O)[O-])cc12
  2.1%	-2	-19%	3%
> O=C(O)CCN1C(=O)/C(=C\c2ccncc2)SC1=S
  6.7%	-6	1%	1%
> CCOC(=O)[C@@H]1[C@H]2COc3ccccc3[C@H]2N2C(=O)N(c3cccc(F)c3)C(=O)[C@]12C
  0.4%	x	1%	9%
> O=C(OCc1ccc(Cl)c(Cl)c1)c1cnccn1
  0.2%	12	1%	25%
> CCCn1c(=S)[nH]c2cc(C(=O)N3CCc4ccccc4C3)ccc2c1=O
  -3.0%	4	0%	13%
> CCOc1ccc(C(=O)CCC(=O)NC2=NCCS2)cc1
  u	x	x	-7%
> Cc1ccc(Nc2nnc(SCC(=O)N(C)C3CCS(=O)(=O)C3)s2)cc1 (stereo not given)
  0.8%	3	-24%	0%
> CCc1c(C#N)c(N)nc(SCC(=O)OCc2ccccc2)c1C#N
  0.1%	0	-14%	-8%
> Cc1ccc(NC(=O)N(C2=NCC(C)S2)c2ccccc2)cc1 (stereo not given)
  u	x	x	0%
> Cc1cccc(/C=N/NC(=O)NC2CCCCC2)c1
  -0.4%	-4	-56%	11%
> N#CC(C(=O)c1ccccc1Cl)=C1SCCCS1
  0.4%	8	-1%	1%
> Cc1cc(C)n2nc(S(=O)(=O)NCCc3ccccc3)nc2n1
  2.5%	-5	-9%	0%
> O=C(Cn1nnc2ccccc21)N/N=C\c1cccs1
  2.3%	3	-14%	20%
> COc1ccc(S(=O)(=O)Nc2ccc3c(c2)OCCO3)cc1Cl
  0.3%	-27	1%	1%
> COc1cc2[nH]c(=S)n(NC(=O)c3ccccc3)c(=O)c2cc1OC
  2.2%	4	0%	0%
> COC(=O)c1ccc(-n2c(C)cc(C(=O)COC(=O)C3=COCCO3)c2C)cc1
  u	x	x	2%
> CCn1ncc(Br)c1C(=O)Nc1cc(C)cc(C)c1
  0.4%	2	-14%	-2%
> Cc1cc2nnc(SC(C)C)n2c2ccccc12
  1.8%	-2	-37%	6%
> CCOC(=O)C1=C(C)N=c2s/c(=C\c3ccc(O)c([N+](=O)[O-])c3)c(=O)n2C1c1ccccc1OC (stereo not given)
  4.1%	x	-2%	-20%
> Cc1ccc(C)c(OCCCC(=O)N2CCOCC2)c1
  1.6%	-1	-32%	-13%
> Cc1cc(C)c(NC(=O)C2CCCN(S(=O)(=O)c3c(C)noc3/C=C/N(C)C)C2)c(C)c1 (stereo not given)
  u	x	2%	u
> O=C(N/N=C/c1c[nH]c2ccccc12)c1cc(-c2ccc(-c3ccccc3)cc2)n[nH]1
  -1.7%	4	0%	-3%
> O=C(CCS(=O)NCc1ccccc1)NCc1ccccc1 (stereo not given)
  x	1	-5%	x
> CCC(=O)OC1(C)C(=O)C=C2C=C(CCCC(=O)OC)OC=C2C1=O (stereo not given)
  u	-7	x	-10%
> CC(C)c1csc(CN2CCC(CO)(Cc3cccc(F)c3)CC2)n1
  8.0%	-5	-2%	-1%
> O=C(NCc1ccccc1)N1CCC(Cc2ccccc2)CC1
  -3.5%	x	2%	16%
> Cc1ccccc1NC(=O)CSc1nc(Nc2ccccc2)nc(N2CCOCC2)n1
  -1.4%	-4	14%	12%
> COc1cccc(N(C(=O)c2snc(C(N)=O)c2N)C(C(=O)NCc2ccccc2)c2ccc(O)cc2)c1 (stereo not given)
  u	x	17%	-5%
> O=C(Oc1ccc[nH]c1=O)c1cccc(Cl)c1
  -0.5%	-7	8%	-9%
> O=C(NCC1CCCO1)c1ccc(S(=O)(=O)Nc2ccccc2F)cc1 (stereo not given)
  -3.8%	x	x	5%
> COc1ccc(C)cc1Nc1n[n+](-c2ccccc2)c(-c2cc(OC)c(OC)cc2Br)s1
  0.9%	x	16%	21%
> Cc1ccc(C)c(N(CC(=O)NC2CCCC2)C(=O)c2csnn2)c1
  -2.1%	x	1%	-17%
> O=c1c2ccccc2ncn1-c1cccc([N+](=O)[O-])c1
  -0.6%	x	x	0%
> COCCN1CCN(C(=O)c2ccc3nc(Cc4ccc(OC)c(OC)c4)oc3c2)CC1
  0.1%	x	12%	0%
> O=C(CSc1nnc2ccccn12)Nc1ccc(S(=O)(=O)N2CCOCC2)cc1
  0.6%	-2	-1%	-2%
> CC(=O)N1CCN(c2ccc(NC(=O)c3cc4ccccc4o3)cc2)CC1
  -1.3%	x	-26%	7%
> CSCCC(NC(=O)c1ccco1)C(=O)N1CCCCCCC1 (stereo not given)
  2.6%	x	x	12%
> CC(C)NC(=O)c1nn2c(C(F)(F)F)cc(-c3ccco3)nc2c1Cl
  6.3%	-4	-1%	4%
> Cc1ccc(CNC(=O)C(N=C2NS(=O)(=O)c3ccccc32)C(C)C)cc1 (stereo not given)
  -2.5%	x	x	-6%

Of the compounds above, these contain a tert-butyl group:
Each structure is followed by: Rango-impB inh	GLA inh pH 4.5	miR-21 FLuc	Rango release inh
> COC(=O)CSc1nnc([C@H](Cc2ccccc2)NC(=O)OC(C)(C)C)o1
  -6.5%	0	-4%	-10%
> CC(C)(C)c1ccc(-c2noc(CCC(=O)NCC3CCCO3)n2)cc1 (stereo not given)
  -2.0%	-1	u	-7%

Other records:
Each structure is followed by: Rango-impB inh	GLA inh pH 4.5	miR-21 FLuc	Rango release inh
> O=C(CNc1cccc(S(=O)(=O)N2CCCC2)c1)Nc1cccc(F)c1
  -0.2%	x	x	20%
> CCSc1nsc(NC(=O)Nc2ccc(F)cc2F)n1
  -1.0%	x	12%	14%
> COc1ccccc1CN=C1NC(=O)C(CC(=O)Nc2ccc(C(C)=O)cc2)S1 (stereo not given)
  -4.6%	0	1%	-6%
> N#Cc1ccccc1OCC(=O)NCC(c1cccs1)N1CCOCC1 (stereo not given)
  -1.4%	x	-5%	-15%
> O=C(NC1CCCc2c1cnn2-c1ccc(F)cc1F)c1ccccc1N1CCOCC1 (stereo not given)
  1.2%	x	-1%	4%
> Nc1c(Cl)cc(-c2csc(N3CCCC3c3nc4cc(Cl)c(N5CCCCC5)cc4n3CCOCCO)n2)cc1Cl (stereo not given)
  0.7%	x	x	-1%
> Cc1ccc(-c2nc(CS(=O)(=O)CC(=O)NC3CCCCC3C)c(C)o2)cc1 (stereo not given)
  -0.1%	-2	-1%	-12%
> CCCc1cc(=O)n2[nH]c(SCc3ccc(Cl)cc3)nc2n1
  -2.6%	x	0%	18%
> Nc1ccc(Sc2nc3ccccc3[nH]2)cc1
  -0.2%	8	-15%	9%
> Cc1ccc([N+](=O)[O-])c(C)[n+]1C
  0.8%	-16	10%	-19%
> N#Cc1ccsc1NC(=O)c1ccc(Cl)c([N+](=O)[O-])c1
  3.1%	-5	-14%	14%
> Cc1nn(C)cc1/C=N\NC(=O)c1ccc(Cn2cc(Cl)cn2)cc1
  0.0%	7	-12%	8%
> COc1ccccc1NCC(=O)NC(=O)NC1CCCCC1
  -1.4%	x	x	-3%
> CCC(C)c1ccccc1N1CC(C(=O)N2CCN(c3ccccc3)CC2)CC1=O (stereo not given)
  0.5%	x	x	7%
> O=[N+]([O-])c1ccc(OCCCn2cncn2)cc1
  3.0%	x	0%	6%
> CSCC[C@H](NC(=O)C1=NN(c2c(F)c(F)cc(F)c2F)C(=O)CC1)c1nc2ccccc2[nH]1
  5.3%	1	-2%	24%
> CCN(C(=O)COC(=O)C1CCN(S(=O)(=O)c2ccc3c(c2)OCCO3)CC1)C1CCS(=O)(=O)C1 (stereo not given)
  -2.8%	x	x	12%
> Cc1ccc(Cl)cc1NC(=O)C1CC1c1ccccc1 (stereo not given)
  u	x	-6%	-7%
> CN(CC(=O)NCC1CCCCC1)S(=O)(=O)c1ccc(Cl)cc1
  0.7%	x	6%	0%
> Fc1ccccc1NC(=S)N/N=C/c1ccccc1Br
  5.4%	4	-60%	2%
> O=C(NC(=S)NC1CCS(=O)(=O)C1)c1cccc([N+](=O)[O-])c1 (stereo not given)
  -1.3%	x	2%	4%
> CNC(=O)/C(C#N)=C/c1c(N2CCN(c3cccc(Cl)c3)CC2)nc2c(C)cccn2c1=O
  u	x	-3%	u
> COc1ccc(NS(=O)(=O)c2cccc(C(=O)NCC(c3ccccc3)N(C)C)c2)cc1 (stereo not given)
  4.5%	x	x	10%
> C=CCn1c(=O)c(C(=O)NCCN(CC)CC)c(O)c2ccccc21
  -0.4%	6	-9%	-8%
> CCN1CCN(C(=O)CSc2cc(=O)n(CC)c3ccccc23)CC1
  -5.3%	7	4%	1%
> CCOC(=O)N1CCC(N(CCOC)C(=S)Nc2cccc(SC)c2)CC1
  1.1%	-10	3%	-9%
> CC(=O)OCCCCON1C(=O)c2ccccc2C1=O
  0.3%	-2	-3%	24%
> O=C(O)c1ccccc1NC(=S)NC(NC(=O)c1ccccc1[N+](=O)[O-])C(Cl)(Cl)Cl (stereo not given)
  1.6%	5	-9%	1%

A portion of the library; the hit share may differ from the screen's.
